Screening data as filed in PubChem BioAssay.
EPAC1 agonist = agonists of human EPAC1. EPAC1 agonist qHTS, biochemical assay; response scale: 100% = response to 6.5 mM cAMP. Potency, µM (doses to about 154 µM), without a hit: at the top dose activation, actives largely listed as activators. 360,000 compounds, 0.073% hits. O95398; also: potency is read from the fitted curve at half-maximal effect; nearly all actives have a fitted effect of over 60% in size
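Normalized to 6.5 mM cAMP, activity reflects EPAC1-catalysed release of BODIPY-GDP from Rap1B, followed kinetically over 30 min at 480 nm excitation, 540 nm emission. Reaction contained 100 nM EPAC1, 250 nM Rap1B-BODIPY-GDP, 50 uM GDP.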
PI5P4Ka inh = PI5P4K alpha (human) kinase inhibition; max response, %; 330,000 compounds, 1.2% hits; AID 652105; P48426; PI5P4Kalpha enzyme, ADP-Glo luminescence, 60 min; hits give low values; active = max response of -50% or lower; also: value at the top dose of about 77 µM; % is scaled to controls: 0 for no effect and ±100 for the full control effect
Target sequence (P48426 whole entry, looked up): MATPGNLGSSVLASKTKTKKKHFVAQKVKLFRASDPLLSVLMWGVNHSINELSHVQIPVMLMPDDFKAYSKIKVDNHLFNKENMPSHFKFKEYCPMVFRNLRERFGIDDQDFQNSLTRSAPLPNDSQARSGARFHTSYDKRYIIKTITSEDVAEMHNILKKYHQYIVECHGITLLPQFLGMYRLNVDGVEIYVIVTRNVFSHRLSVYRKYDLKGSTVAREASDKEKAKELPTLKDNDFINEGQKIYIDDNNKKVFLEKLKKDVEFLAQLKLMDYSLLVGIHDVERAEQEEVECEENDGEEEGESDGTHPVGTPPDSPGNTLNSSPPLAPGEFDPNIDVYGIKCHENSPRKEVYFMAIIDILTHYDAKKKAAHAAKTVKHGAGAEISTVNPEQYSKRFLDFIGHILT
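Human PI5P4Kalpha with substrate in 0.038 M HEPES pH 7.4, 0.28 mM EGTA, 0.1% CHAPS, 5% DMSO; reaction started with 5 microM ATP (final), 60 min at room temperature. ADP formed read by ADP-Glo luminescence.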
IL-2 act = IL-2 activation. IL-2 activation reporter assay, cell-based qHTS; stimulated with anti-CD3/CD4/CD28 beads; in transgenic mouse T cells. activation, % (series mostly up to about 46 µM). 360,000 compounds, 0.065% hits. AID 652025; in the data active = activation above about 50%; also: 0% is about no effect
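First, unstimulated transgenic mouse T cells were exposed to compound for 60 min. Next, anti-CD3/anti-CD4-coated beads with anti-CD28 were added. Finally, after 18 h at 37 degrees C, EGFP and DsRed were imaged.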
PLK1 PBD block = PLK1 (human) polo-box domain binding inhibition | Potency, µM, without a hit: max response, negative = inhibition, usual class: inhibitors | P53350 | Plk1 PBD binding of FITC phosphopeptide, fluorescence polarization | 360,000 compounds, 2.8% hits; also: potency is read from the fitted curve at half-maximal effect; series mostly up to about 57 µM; % is scaled to controls: 0 for no effect and ±100 for the full control effect; nearly all actives have a fitted effect of over 65% in size
Abeta yeast res = restores growth of yeast expressing A-beta42 peptide. yeast expressing A-beta42, growth rescue, OD600, 48 h; response scale: 0% DMSO, 100% iron-clioquinol control. Potency, µM (highest dose often 46.1 µM), without a hit: top-dose growth rescue, actives largely listed as activators. 410,000 compounds, 0.063% hits. AID 1347071; also: potency is read from the fitted curve at half-maximal effect; nearly all actives have a fitted effect of over 55% in size
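Yeast growth medium received pinned compounds, then yeast cells expressing toxic A-beta were added; plates incubated at 30 C for 48 hr. Growth read as absorbance at 600 nm, normalized to DMSO and equimolar FeCl3 plus clioquinol controls.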
FUS yeast rescue = suppressors of FUS proteinopathy in yeast | S. cerevisiae FUS-expressing, growth rescue, OD600, 24 h | Potency, µM (top dose mostly 76.6 µM), for inactives: top-dose growth rescue (activation), most hits filed as activators | 390,000 compounds, 0.24% hits | AID 1347120;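 also: potency is read from the fitted curve at half-maximal effect; plate controls were DMSO vehicle for no effect and reference control for full effect; nearly all actives have a fitted effect of over 55% in size; some results filed as inactive show a strong effect at the top dose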
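Read-out: OD at 600 nm after 24hr at 30C, reporting rescue of FUS-induced yeast toxicity. Cells at OD 0.005 in galactose (2%) minimal medium; compounds tested in a dilution series; CP55940 titration from 92uM final as control.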
EPAC1 antag = antagonists of human EPAC1; EPAC1 GEF assay, Rap1b-BODIPY-GDP exchange fluorescence; O95398; Potency, µM (doses to about 115 µM), inactives show top-dose activity change, negative = inhibition, usual class: inhibitors; 360,000 compounds, 0.14% hits;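 also: potency is read from the fitted curve at half-maximal effect; plate controls were vehicle for no effect and positive control for full effect; nearly all actives have a fitted effect of over 50% in size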
An asterisk follows results filed as active; . = no result given. Unless noted, calls follow the shape of the dose curve; as a rule, active = well fitted curve in the direction sought with a large enough effect; inconclusive = small, poorly fitted or top-dose-only effect, or another doubt; inactive = no such curve, though single readings can be large; an effect the other way counts as inactive or inconclusive.

Field names – A = EPAC1 agonist; B = PI5P4Ka inh; C = IL-2 act; D = PLK1 PBD block; E = Abeta yeast res; F = FUS yeast rescue; G = EPAC1 antag
[1] Cc1cc(C)c(NC(=S)N2CCCC2C(=O)O)c(C)c1 (stereo unspecified)
  A: -1%	B: -17	C: -2.1	D: 6.7µM*	E: -18%	F: 3%	G: 3%

[2] CCc1cc2c(NCCC(=O)O)ncnc2s1
  A: 2%	B: -9	C: -0.9	D: -1%	E: 8%	F: 11%	G: 0%

[3] Cc1ccc(CNCc2cc3c(C(C)(C)C)nn(-c4ccccc4)c3[nH]c2=O)cc1
  A: 4%	B: .	C: -1.9	D: -5%	E: -3%	F: 24%	G: -16%

[4] CC/C(=N/NC(=O)c1ccccc1)c1ccc(OCCN2CCOCC2)cc1
  A: -4%	B: 6	C: -2.8	D: 0%	E: 11%	F: .	G: 5%

[5] C[C@H](NC(=O)c1nc[nH]c1C(=O)NC1CCN(C(=O)OC(C)(C)C)CC1)C(=O)OC(C)(C)C
  A: -25%	B: 0	C: -0.2	D: -2%	E: -20%	F: 22%	G: 4%

[6] N#CC(c1ccccc1F)(c1ncc(C(F)(F)F)cc1Cl)N1CCOCC1 (stereo unspecified)
  A: 1%	B: .	C: -2.1	D: -14%	E: -24%	F: 25%	G: 2%

[7] O=C(Cc1cccc(C(F)(F)F)c1)OCC(=O)N1CCN(S(=O)(=O)c2ccc(Cl)cc2)CC1
  A: -2%	B: 7	C: 0.7	D: 3%	E: 11%	F: 35%	G: -16%

[8] Cc1c(NC(=O)C(C)N(c2ccccc2)S(C)(=O)=O)c(=O)n(-c2ccccc2)n1C (stereo unspecified)
  A: 16%	B: 9	C: 1.2	D: -2%	E: -7%	F: 1%	G: 11%

[9] Cc1ccc2nc(NCc3ccccc3)c(C=O)c(=O)n2c1
  A: 5%	B: 14	C: -0.1	D: 2%	E: -9%	F: 8%	G: -23%

[10] COc1ccc(C(=O)C(CN2CCOCC2)c2ccccc2)cc1F (stereo unspecified)
  A: -1%	B: 5	C: -6.5	D: -14%	E: -18%	F: .	G: 3%

[11] COC(=O)Cc1cc(=O)oc2cc(O)ccc12
  A: 9%	B: -7	C: 0.4	D: -4%	E: 17%	F: -14%	G: 1%

[12] O=C(CCNC(=O)c1ccc(Br)cc1)Nc1nc2ccccc2[nH]1
  A: 0%	B: 3	C: -4.3	D: 5%	E: -11%	F: -18%	G: -16%

[13] O=[N+]([O-])c1ccc(-c2nc(NCC3CCCO3)c3ccccc3n2)cc1 (stereo unspecified)
  A: -8%	B: 11	C: -4.2	D: 2%	E: -20%	F: 17%	G: -3%

[14] COc1cccc2c1CCc1c-2nc2ccccc2c1C(=O)O
  A: 9%	B: -7	C: 0.4	D: -8%	E: -5%	F: 14%	G: 15%

[15] COc1cc2c(cc1OC)-c1cc(N3CCCc4ccccc43)nc(=O)n1CC2
  A: -6%	B: .	C: 0.9	D: 2%	E: 24%	F: 3%	G: 14%

[16] COc1ccccc1-n1c(-c2cc(-c3ccc(F)cc3)n[nH]2)n[nH]c1=S
  A: -2%	B: 1	C: 1.1	D: -27%	E: -8%	F: 17%	G: -15%

[17] C=CCC1(CC=C)CCCN1C(=O)c1cc(COc2ccc(F)c(F)c2)on1
  A: -3%	B: 1	C: -3.1	D: -17%	E: 17%	F: 16%	G: -26%

From no. 8 as far as 16, as listed above:
Field names – A = EPAC1 agonist; B = PI5P4Ka inh; C = IL-2 act; D = PLK1 PBD block; E = Abeta yeast res; F = FUS yeast rescue; G = EPAC1 antag
[8] Cc1c(NC(=O)C(C)N(c2ccccc2)S(C)(=O)=O)c(=O)n(-c2ccccc2)n1C (stereo unspecified)
  A: 16%	B: 9	C: 1.2	D: -2%	E: -7%	F: 1%	G: 11%

[9] Cc1ccc2nc(NCc3ccccc3)c(C=O)c(=O)n2c1
  A: 5%	B: 14	C: -0.1	D: 2%	E: -9%	F: 8%	G: -23%

[10] COc1ccc(C(=O)C(CN2CCOCC2)c2ccccc2)cc1F (stereo unspecified)
  A: -1%	B: 5	C: -6.5	D: -14%	E: -18%	F: .	G: 3%

[11] COC(=O)Cc1cc(=O)oc2cc(O)ccc12
  A: 9%	B: -7	C: 0.4	D: -4%	E: 17%	F: -14%	G: 1%

[12] O=C(CCNC(=O)c1ccc(Br)cc1)Nc1nc2ccccc2[nH]1
  A: 0%	B: 3	C: -4.3	D: 5%	E: -11%	F: -18%	G: -16%

[13] O=[N+]([O-])c1ccc(-c2nc(NCC3CCCO3)c3ccccc3n2)cc1 (stereo unspecified)
  A: -8%	B: 11	C: -4.2	D: 2%	E: -20%	F: 17%	G: -3%

[14] COc1cccc2c1CCc1c-2nc2ccccc2c1C(=O)O
  A: 9%	B: -7	C: 0.4	D: -8%	E: -5%	F: 14%	G: 15%

[15] COc1cc2c(cc1OC)-c1cc(N3CCCc4ccccc43)nc(=O)n1CC2
  A: -6%	B: .	C: 0.9	D: 2%	E: 24%	F: 3%	G: 14%

[16] COc1ccccc1-n1c(-c2cc(-c3ccc(F)cc3)n[nH]2)n[nH]c1=S
  A: -2%	B: 1	C: 1.1	D: -27%	E: -8%	F: 17%	G: -15%

A portion of the library; count on the stated rates, not on these rows.
